Screening data: PubChem, Johns Hopkins Ion Channel Center
KCNQ2 pot – enhances the rat KCNQ2 potassium channel. O88943. CHO-K1 KCNQ2, FluxOR thallium flux fluorescence; hits give high values. B-score at 10 µM. 310,000 compounds, 0.54% hits. AID 2239;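 active means fluorescence ratio B-score at least 3 SD of library B-scores, with initial fluorescence B-score within 3 SD, cut at about 5.3 in these data; same plate scores as AID 2156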;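 further: B-score of peak minus minimum over baseline fluorescence ratio after K+ and Tl+ stimulus; positive B-score means potentiation of KCNQ2 with more thallium influx and brighter signal; only the inactives scoring about 0 or higher are listed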
Target sequence (O88943 whole entry, looked up): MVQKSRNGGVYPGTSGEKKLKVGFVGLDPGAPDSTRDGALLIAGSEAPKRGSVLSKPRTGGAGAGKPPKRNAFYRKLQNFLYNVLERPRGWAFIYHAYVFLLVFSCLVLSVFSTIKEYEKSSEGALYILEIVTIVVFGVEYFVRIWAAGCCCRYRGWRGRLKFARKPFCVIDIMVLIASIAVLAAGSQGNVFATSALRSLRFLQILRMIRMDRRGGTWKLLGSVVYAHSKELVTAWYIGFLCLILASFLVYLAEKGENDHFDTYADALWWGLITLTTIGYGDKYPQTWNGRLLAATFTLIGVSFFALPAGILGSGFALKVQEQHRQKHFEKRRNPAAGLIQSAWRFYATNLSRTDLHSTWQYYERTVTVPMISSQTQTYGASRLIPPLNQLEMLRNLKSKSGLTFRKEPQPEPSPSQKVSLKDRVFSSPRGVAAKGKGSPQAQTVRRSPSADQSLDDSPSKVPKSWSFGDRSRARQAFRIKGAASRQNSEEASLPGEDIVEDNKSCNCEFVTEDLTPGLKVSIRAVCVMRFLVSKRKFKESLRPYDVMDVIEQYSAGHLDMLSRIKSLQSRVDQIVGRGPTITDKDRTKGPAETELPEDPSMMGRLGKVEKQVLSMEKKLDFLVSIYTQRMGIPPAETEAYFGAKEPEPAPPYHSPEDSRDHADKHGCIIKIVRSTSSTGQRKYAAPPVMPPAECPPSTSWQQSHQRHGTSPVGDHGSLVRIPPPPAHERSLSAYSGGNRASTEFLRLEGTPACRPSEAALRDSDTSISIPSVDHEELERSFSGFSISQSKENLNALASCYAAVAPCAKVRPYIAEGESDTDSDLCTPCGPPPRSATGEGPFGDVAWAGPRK
KCNQ2 pot baseline – recorded beside KCNQ2 pot, whose call it bears; B-score; compound at 10 µM; measured here: initial fluorescence intensity artifact check;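 brightness before thallium and not channel activity; 0 = typical well and far values either way flag optical interference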
Numbers without * were called inactive; x = not tested or not shown. A portion of the library (hit frequency here may not be typical).

KCNQ2 pot baseline | KCNQ2 pot | Molecule
0.24 | 0.03 | Cc1ccc(C(=O)NC2CC(C)(C)NC(C)(C)C2)c(C)c1
-0.43 | 1.55 | COc1ccc(N2CCN(CC(O)COc3ccc(F)cc3)CC2)cc1 (configuration not stated)
0.89 | 0.2 | Cc1cc(NC(=O)CN2CCN(c3ncccn3)CC2)no1
-0.11 | 1.31 | COc1cc(/C=N/Nc2ccc(C(=O)O)cc2)cc(OC)c1OC
2.27 | 0.02 | O=C(CSc1ccc(-c2ccco2)nn1)NC1CCCCC1
-0.66 | 0.26 | CCN(CC(=O)Nc1c(F)cccc1F)C(=O)c1ccc(=O)[nH]c1
-0.55 | 0.37 | CCOc1ccc(N(CC(=O)N2CCN(C(=O)CN(c3ccc(OCC)cc3)S(C)(=O)=O)CC2)S(C)(=O)=O)cc1
-2.06 | 0.35 | CCCCNC(=O)CSc1nc2ccccc2c(=O)n1CCNC(C)=O
0.22 | 0.35 | Nc1nc2c(ncn2CCC(CO)CO)c(=O)[nH]1
1.22 | 0.58 | COc1ccc(CCNC(=O)CCCn2c(SCC#N)nc3ccccc3c2=O)cc1OC
-0.64 | 2.46 | C/C(=N/N1CCN(c2ccccn2)CC1)c1ccc([N+](=O)[O-])cc1
-0.17 | 0.66 | CCOC(=O)CNC(=O)N(CCOC)CC1CCCN(C2Cc3ccccc3C2)C1 (configuration not stated)
-0.65 | 0.04 | Cc1cc(=O)c2c(C)nn(-c3ccccc3)c2[nH]1
1.94 | 1.24 | COCCNS(=O)(=O)c1ccc(-c2ccc(C)cc2)cc1
-0.53 | 1.87 | Cc1nn(C)cc1NC(=O)c1ccc(Br)o1
1.21 | 0.58 | Cc1cc(C)nc(NS(=O)(=O)c2ccc(NC(=O)c3ccc(O)cc3O)cc2)n1
0.05 | 1.49 | OCCNc1nc(Nc2ccccc2O)nc(N2CCCC2)n1
-1.04 | 1.21 | O=C(CSc1nnc(-c2ccccc2)n1CC1CCCO1)N1CCCC1 (configuration not stated)
0.01 | 1.21 | CC(C)CNC(=O)[C@H](Cc1ccccc1)NC(=O)c1ccco1
-0.32 | 0.75 | CC(C)C(=O)N1CCC(CN=CC2=C(O)CC(C)(C)CC2=O)CC1
0.71 | 0.82 | CCOc1ccc(NC(=O)CC2C(=O)N(CC)C(=S)N2CCNC(C)=O)cc1 (configuration not stated)
-1.85 | 1.42 | COc1cc(NS(=O)(=O)c2ccc3c(c2)C(C)(C)C(=O)N3C)cc(OC)c1
-0.3 | 0.96 | Cc1cc2ncn(S(=O)(=O)N(C)C)c2cc1C
-0.17 | 0.32 | CCCN(CCC)c1ccc(/C=N/NC(=O)CN2CCOCC2)cc1
-0.66 | 2.72 | Cc1ccc(-c2cn(S(=O)(=O)c3cccc4nsnc34)nc2N)cc1

Shown in markdown: part of the list above.
| compound | KCNQ2 pot baseline | KCNQ2 pot |
| --- | --- | --- |
| CC(C)CNC(=O)[C@H](Cc1ccccc1)NC(=O)c1ccco1 | 0.01 | 1.21 |
| CC(C)C(=O)N1CCC(CN=CC2=C(O)CC(C)(C)CC2=O)CC1 | -0.32 | 0.75 |
| CCOc1ccc(NC(=O)CC2C(=O)N(CC)C(=S)N2CCNC(C)=O)cc1 (configuration not stated) | 0.71 | 0.82 |
| COc1cc(NS(=O)(=O)c2ccc3c(c2)C(C)(C)C(=O)N3C)cc(OC)c1 | -1.85 | 1.42 |
| Cc1cc2ncn(S(=O)(=O)N(C)C)c2cc1C | -0.3 | 0.96 |

Returning to the listing; the 2 compounds before the break are reprinted first.
KCNQ2 pot baseline | KCNQ2 pot | Molecule
-0.17 | 0.32 | CCCN(CCC)c1ccc(/C=N/NC(=O)CN2CCOCC2)cc1
-0.66 | 2.72 | Cc1ccc(-c2cn(S(=O)(=O)c3cccc4nsnc34)nc2N)cc1
-0.8 | 1.26 | COc1ccc(CNc2cc(C)nc3ncnn23)c(OC)c1
-1.39 | 0.11 | COc1ccc(N2C(=O)C3ON(C4SC(=S)N(C)C4(C)C)C(c4ccc([N+](=O)[O-])cc4)C3C2=O)cc1 (configuration not stated)
-0.32 | 0.01 | Cc1cccc(NC(=O)C2CCN(S(=O)(=O)c3ccc4c(c3)NC(=O)CO4)CC2)c1C
0.26 | 0.54 | COc1ccc(/C=N/S(=O)(=O)c2cccs2)cc1
0.5 | 0.6 | O=C(CSc1n[nH]c(-c2ccncc2)n1)Nc1ccccn1
-1.93 | 0.85 | Cc1ccc(S(=O)(=O)N2CCCN(S(=O)(=O)c3ccc4ccccc4c3)CC2)cc1
0.68 | 0.87 | CC(=O)O[C@@H]1[C@H]2[C@@H](C[C@@H](C)[C@@H]3C=CC(=O)[C@@]13C)OC(=O)[C@@H]2C
0.66 | 0.03 | O=C(Cn1cc(C(F)(F)F)cc(Cl)c1=O)NCCc1ccc(Cl)cc1Cl
-0.05 | 0.41 | NC(=O)CSc1nnc(-c2cccnc2)n1Cc1ccccc1
-0.42 | 0.09 | Cc1cc(NC(=O)CSc2nc3c(c(=O)n2-c2ccccc2)SC(C)C3)no1 (configuration not stated)
-2.03 | 1.15 | COc1cc2c(cc1NC(=O)COC(=O)/C=C/c1ccccc1)oc1ccccc12
1.2 | 0.87 | CCOc1ccc(CNC(=O)CCC(=O)n2ncc3ccc(Cl)cc32)cc1
-0.45 | 0.03 | CCOc1ccc(NC(=S)NC23CC4CC(CC(C4)C2)C3)cc1
-0.62 | 3.78 | Cc1cc(-c2ccco2)n(CC(=O)O)n1
0.19 | 0.49 | Cn1c(CN2CCOCC2)nc2cc(NC(=O)c3ccc(F)cc3)ccc21
0.17 | 0.68 | Cn1c(=O)[nH]c(=O)c2c1nc(N1CCCCCC1)n2Cc1cccc2ccccc12
-0.22 | 0.68 | Cc1ccc(NC(=O)CSc2nc3ncc(Cl)cc3[nH]2)c(C)c1
-0.13 | 0.5 | COc1ccc([N+](=O)[O-])cc1NC(=O)C1CCCCC1C(=O)O (configuration not stated)
0 | 0.42 | O=C(Nc1ccc(Oc2ccsc2C(=O)O)cc1)c1ccccc1F
-0.92 | 3.53 | CC(=O)c1ccc(NC(=O)N2CCN(c3ccc(C)cc3)C(C)C2)cc1 (configuration not stated)
0.86 | 0.22 | Cc1ccc(-c2nc3ccccc3[nH]2)cn1
0.55 | 0.49 | CCOc1ccc(CNC(=O)CS(=O)(=O)Cc2nc(-c3ccc(OC)cc3)oc2C)cc1
4.25 | 0.19 | Cc1c(Cc2ccccc2)c(=O)oc2cc(O)cc(O)c12
-0.27 | 0.25 | O=C(/C=C1\SC(=O)NC1=O)Nc1ccc(C(=O)O)cc1
1.02 | 0.67 | COc1cccc(N2[C@@H](CC(=O)O)c3cc(C(F)(F)F)ccc3S2(=O)=O)c1

Compounds from the list above containing a nitro group on carbon:
KCNQ2 pot baseline | KCNQ2 pot | Molecule
-0.64 | 2.46 | C/C(=N/N1CCN(c2ccccn2)CC1)c1ccc([N+](=O)[O-])cc1
-1.39 | 0.11 | COc1ccc(N2C(=O)C3ON(C4SC(=S)N(C)C4(C)C)C(c4ccc([N+](=O)[O-])cc4)C3C2=O)cc1 (configuration not stated)
-0.13 | 0.5 | COc1ccc([N+](=O)[O-])cc1NC(=O)C1CCCCC1C(=O)O (configuration not stated)

Next part.
KCNQ2 pot baseline | KCNQ2 pot | Molecule
-2.06 | 1.5 | CCN(CC)CCn1c(NC(=O)c2ccc(Cl)cc2)nc2ccccc21
-0.19 | 1.39 | COc1ccc(Nc2ncnc3c2c(C)c(C)n3CCCN(C)C)cc1
-1.26 | 0.64 | CCn1c(=O)c2ccccc2n(Cc2ccc([N+](=O)[O-])cc2)c1=O
-0.69 | 1.05 | CCc1ccc(N2CC(C(=O)OC)CC2=O)cc1 (configuration not stated)
0.52 | 0.51 | O=C(OCCC1Oc2cccnc2NC1=O)c1ccc(Cl)cc1 (configuration not stated)
-0.43 | 0.62 | O=[N+]([O-])c1ccccc1Nc1cccnc1
-0.01 | 0.31 | COC(=O)C1CCN(S(=O)(=O)Cc2ccccc2Cl)CC1
0.53 | 1.5 | O=C(c1csc2ccccc12)N1CCCCCC1
-0.79 | 1.24 | c1ccc2c(c1)Cn1nnnc1-2
-1.57 | 0.17 | OCCCC1CCCN(Cc2cn[nH]c2-c2ccc(F)cc2F)C1 (configuration not stated)
2.13 | 0.08 | O=c1c2ccccc2c2ccccc2c(=O)n1Cc1cccnc1
1.92 | 1.69 | Oc1ccc(/C=N/Nc2nccnc2Cl)cc1
-1.82 | 0.71 | NS(=O)(=O)c1ccc(NC(=S)N2CCN(C(=O)C3CCCO3)CC2)cc1 (configuration not stated)
-0.8 | 1.62 | Nn1cnnc1N/N=C/c1ccc(Cl)cc1Cl
-0.38 | 0.71 | COc1ccccc1-c1c(NC(=O)C(C)C)n(C)c2ccccc2c1=O
-1.5 | 1.32 | CCOC(=O)Cc1cc(=O)n2[nH]c(C)cc2n1
-1.72 | 0.54 | CC(=O)N1CCc2c(sc(NC(=O)C3CCCCC3)c2C(N)=O)C1
0.4* | 5.35* | C/C(=N\Nc1ccc(C(=O)O)cc1)c1ccc2c(c1)Nc1ccccc1S2
1.47 | 1 | Nc1[nH]c(N=NC(=O)c2ccc(Cl)cc2)c2ccccc12
0.05 | 1.47 | CCS(=O)(=O)c1nc2ccccc2n1CC(=O)N1CCOCC1
-0.15 | 0.71 | COc1ccc(Cl)cc1NC(=O)C1CCCO1 (configuration not stated)
-1.65 | 2.55 | COCCNC(=S)N(CCc1c(C)[nH]c2ccc(OC)cc12)Cc1ccco1
0.48 | 0.02 | CC(C)(CO)NC(=O)Nc1ccc(Cl)c(Cl)c1
1.42 | 0.3 | O=C(NC(=S)Nc1ccccc1O)c1cccnc1
-0.18 | 0.52 | O=C(COC(=O)c1ccccc1SCC(=O)NC1CCS(=O)(=O)C1)NC1CCS(=O)(=O)C1 (configuration not stated)

Next section.
KCNQ2 pot baseline | KCNQ2 pot | Molecule
-1.22 | 1.22 | COc1cccc(CN2C(=O)Nc3ccccc3C(=O)N2C(C)(C)C)c1
-0.01 | 0.96 | O=C(CSc1nc(-c2ccco2)cc(C(F)(F)F)n1)Nc1ccc(C(=O)N2CCOCC2)cc1
-2.13 | 2.62 | O=C(Cn1c(CN2CCCCC2)nc2ccccc2c1=O)Nc1ccccc1
-0.06 | 1.55 | CC1=C(C(=O)Nc2ccc(Cl)cc2)C(c2ccco2)NC(=O)N1 (configuration not stated)
x | 0.09 | CNC(=O)Oc1ccc2c(c1)[C@]1(C)CCN(C)[C@@H]1N2C
1.17 | 0.09 | CN(C)C(CNc1ncnc2sc3c(c12)CCCC3)c1ccco1 (configuration not stated)
-1.51 | 0.26 | CCNC(=O)C1CC(=O)N(c2ccc(OCC)cc2)C1 (configuration not stated)
0.76 | 0.36 | CC(C)CCNC(=O)c1ccc(NC(=O)C2=CSCCO2)cc1
1.6 | 0.26 | Cc1cc(C)c(C#N)c(Nc2ccccc2)n1
-1.15 | 0.03 | Cc1ccccc1NC(=O)Cn1c(C)nc2ccc(N)cc2c1=O
1.62 | 0.97 | COc1ccc(-c2noc(CSc3nnc(-c4ccccc4)n3C)n2)cc1
0.31 | 1.2 | COc1ccccc1NC(=O)c1ccc(NS(C)(=O)=O)cc1
1.66 | 0.61 | Cc1csc(NC(=O)c2cc3c(C)nn(Cc4ccccc4Cl)c3s2)n1
-0.91 | 0.01 | CN1CCN(c2nc3c(c(=O)[nH]c(=O)n3C)n2Cc2ccccc2)CC1
1.25 | 0.81 | COc1ccccc1C(=O)Oc1cc(N)n(S(=O)(=O)c2ccccc2)n1
1.11 | 1.94 | Cc1ncc(S(=O)(=O)c2ccccc2)c(-c2ccccc2)n1
-1.92 | 0.82 | Cc1ccc(NC(=O)c2cc(S(=O)(=O)N3CCCCC3)ccc2N2CCOCC2)cc1F
-0.29 | 0.66 | C#CCOCCOCCOCCNc1nc(N2CCN(C(=O)C([C@@H](C)CC)n3cc(C(N)COC(=O)C(F)(F)F)nn3)CC2)nc(N2CCN(C(=O)[C@H](CCCCN)n3cc(C(N)[C@H](C)CC)nn3)CC2)n1 (some centres not stated)
0.5 | 0.82 | COc1ccccc1-c1nnc(SCC(=O)Nc2ccc(N3CCOCC3)cc2)n1C
-0.53 | 0.23 | COc1cc(S(=O)(=O)N2CCOCC2)ccc1N
0.62 | 0.7 | Nc1nonc1-n1nnc(C(=O)N/N=C/c2ccc(OCc3ccccc3F)cc2)c1CN1CCCCC1
0.54 | 0.3 | CSc1ncccc1C(=O)Nc1nc2ccc(S(C)(=O)=O)cc2s1
0.02 | 1.32 | CC(=O)c1ccc(-n2ccnc2)cc1
0.68 | 0.06 | O=C(CC1Nc2cccc3cccc(c23)NC1=O)Nc1ccc(F)cc1 (configuration not stated)
-1.02* | 16.1* | COc1ccc(NC(=O)CC23CC4CC(CC(Br)(C4)C2)C3)c(OC)c1

(next part)
KCNQ2 pot baseline | KCNQ2 pot | Molecule
0.02 | 2.63 | Cc1cc(/C=C2\C(=N)N3N=C(c4ccco4)SC3=NC2=O)c(C)n1Cc1ccccc1
0.79 | 0.63 | C=CCn1c(O)c(N=NC(=O)c2cccnc2)c2cc(Br)ccc21
0.21* | 13.4* | Cc1cccc(CS(=O)(=O)c2ncc(Cl)c(C(=O)Nc3nnc(C(C)C)s3)n2)c1
1.4 | 1.83 | O=C(Cn1cnc2c(cnn2-c2ccc(F)cc2)c1=O)NCCc1ccccc1
-1.33 | 3.1 | O=C(Cc1ccc(F)cc1)N(c1ccccc1)C1C=CS(=O)(=O)C1 (configuration not stated)
-1.4 | 1.07 | CN1CC(=O)N(C)c2ncn(Cc3ccccc3)c2C1=O
0.65 | 0.21 | Cc1ccc(CN(C(=O)COc2ccc(Br)cc2)C2CCS(=O)(=O)C2)o1 (configuration not stated)
0.04 | 0.86 | CCS(=O)(=O)C(=C1NCCO1)S(=O)(=O)CC
-0.62 | 0.09 | CC#CCN1c2ccccc2[C@]23C[C@@H](C(=O)OC)N(C(=O)c4ccco4)C2=NC(C(=O)OC)=C(C(=O)OC)[C@H]13
